# Screening data (PubChem BioAssay)
# VDR inhibitor: vitamin D3 receptor (human) inhibition; P11473; VDR-SRC2-3 peptide fluorescence polarization, 2 h; 400,000 compounds, 0.93% hits; Potency, µM, without a hit: max response, negative = inhibition, actives largely listed as inhibitors; active means well fitted inhibition curve with a large enough effect; inconclusive means small, poorly fitted or top-dose-only effect, or another doubt; inactive means no such curve, though single readings can be large or run the other way; further: series mostly up to about 120 µM
# Target sequence (P11473 whole entry, looked up): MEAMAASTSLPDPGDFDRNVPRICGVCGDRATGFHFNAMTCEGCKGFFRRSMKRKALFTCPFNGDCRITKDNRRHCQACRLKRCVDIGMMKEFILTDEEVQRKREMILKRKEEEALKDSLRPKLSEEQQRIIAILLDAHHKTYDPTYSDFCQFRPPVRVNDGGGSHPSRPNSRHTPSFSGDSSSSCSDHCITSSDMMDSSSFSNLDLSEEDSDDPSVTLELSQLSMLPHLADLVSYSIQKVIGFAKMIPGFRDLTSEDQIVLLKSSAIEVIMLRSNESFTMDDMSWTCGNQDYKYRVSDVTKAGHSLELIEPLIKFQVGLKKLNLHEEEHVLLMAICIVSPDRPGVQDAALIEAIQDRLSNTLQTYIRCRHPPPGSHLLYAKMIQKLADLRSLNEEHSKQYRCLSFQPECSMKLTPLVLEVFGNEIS
#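 Two reagent solutions held at 4 deg C in the dark were dispensed, compounds pinned at 23 nl, and the mixture incubated 2 h at room temperature. Read-out: fluorescence polarization of VDR–SRC2-3 peptide binding.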
# Numbers without * were called inactive; ? = inconclusive; [ ] = dose if it differs, or a comment. On the % scale 0 is the no-effect control and ±100 the full control effect; potency means the concentration at half of the fitted maximal effect. A portion of the library; rates above refer to the full screens.
SMILES,VDR inhibitor
COc1cc(OC)c(C(=O)Nc2cccc(C(C)=O)c2)cc1OC,-9.0%
O=C1N=c2ccccc2=C1c1c(O)[nH]c2c(C(F)(F)F)cccc12,35.5µM*
O=C(NCc1ccccc1Cl)c1csc2c1CCCCC2,-6.3%
O=C(c1cc(Sc2ccc(Cl)cc2)nc2ccccc12)N1CCN(c2ccccn2)CC1,-8.3%
CC1CN(CC(=O)Nc2ccc(Br)cn2)CC(C)O1 (stereo not given),7.4%
O=C(NCCOCCOCCNC(=O)c1ccccc1)c1ccccc1,-10.8%
CC1(C)CC(=O)C2=C(C1)OC1=C(C2)C(=O)CC(C)(C)C1,-7.1%
O=C(CSc1cn(CCNC(=O)c2c(F)cccc2F)c2ccccc12)Nc1ccc(F)cc1,-4.5%
Nc1nc(NC(=O)C(Cl)(Cl)Cl)nn1-c1ccccc1,4.3%
CC1(C)CC2CC(C)(CN2S(=O)(=O)c2cccc(C(=O)OCC(N)=O)c2)C1 (stereo not given),-8.4%
Cn1c(SCC(=O)NCc2ccc3c(c2)OCO3)nnc1-c1c[nH]c2ccccc12,1.7%
O=C(NCc1cccnc1)c1cn(CCc2ccccc2)nn1,1.4%
COc1cccc(NC(=O)COC(=O)CCS(=O)(=O)c2ccc(C)cc2)c1,-0.3%
COc1ccc(-c2cc(=O)oc3cc(OC(C)C(=O)Nc4ccc(CN5CCOCC5)cc4)ccc23)cc1 (stereo not given),-13.6%
COc1ccc(-c2nc(C)sc2CC(=O)O)cc1OC,-11.7%

# Gathered by group: the entries above containing four or more nitrogen atoms (4)
SMILES,VDR inhibitor
O=C(c1cc(Sc2ccc(Cl)cc2)nc2ccccc12)N1CCN(c2ccccn2)CC1,-8.3%
Nc1nc(NC(=O)C(Cl)(Cl)Cl)nn1-c1ccccc1,4.3%
Cn1c(SCC(=O)NCc2ccc3c(c2)OCO3)nnc1-c1c[nH]c2ccccc12,1.7%
O=C(NCc1cccnc1)c1cn(CCc2ccccc2)nn1,1.4%

# Next section:
SMILES,VDR inhibitor
CC(=O)Nc1ccc(-c2csc(-c3cccnc3)n2)cc1,0.7%
CCCC(=O)NC(c1ccccc1OC)c1ccc2cccnc2c1O (stereo not given),-1.1%
Cc1cc(=O)oc2c(CN(CC(C)C)CC(C)C)c(O)ccc12,-6.3%
Cc1cc(S(=O)(=O)NCCc2ccccc2)c(C)s1,-1.5%
CC(C)N(Cc1ccccc1)C(=O)c1ccc2c(c1)OCO2,5.2%
Cc1ccc(-c2csc(C(C#N)=C(O)CN3CCN(C(=O)c4ccco4)CC3)n2)cc1,26.0%
CCn1c(=O)c2ccccc2n2c(SCC(=O)N3CCCc4ccccc43)nnc12,-3.0%
CCn1cc(/C=N\NC(=O)c2c[nH]c3ccccc23)c(C)n1,-15.9%
O=C1Nc2ccccc2CCc2ccccc21,-5.0%
Cc1c(C(=O)Nc2ccc(Cl)cc2)c2ccccn2c1C(=O)c1ccccc1,5.7%
O=C(c1cccc(C(F)(F)F)c1)C1CCCN(C(=O)CCc2cnccn2)C1 (stereo not given),-4.4%
Cc1ccccc1N(CC(=O)N1CCOCC1)S(C)(=O)=O,14.6%
Cc1cc(C)c2nc(N(Cc3cccnc3)C(=O)CCOc3ccccc3)sc2c1,-1.9%
NC(=O)COC(=O)C(Cc1ccccc1)NS(=O)(=O)c1ccccc1F (stereo not given),-20.6%
O=C(NCc1cccs1)C1CCN(C(=O)N2CCOc3ccc(Cl)cc32)CC1,8.8%
CSc1ccc(CCNC(=O)c2ccc(-c3nc(COc4ccccc4)c(C)o3)cc2)cc1,4.4%
O=C(COC(=O)CCSc1ccccc1)Nc1ccccc1,-4.0%
Cn1c(SCc2c(Cl)cccc2Cl)nnc1-c1ccc2nonc2c1,18.8%
COC(=O)c1ccc(C(C(=O)NC2CCCCC2)N(Cc2ccccc2)C(=O)Cc2cccs2)cc1 (stereo not given),10.3%
CCCCC(C(=O)OCC)C(N)Cc1ccc(F)cc1 (stereo not given),1.0%
CCN=C1S/C(=C\c2ccc(OCC)c(OC)c2)C(=O)N1CC,-15.8%
O=S(=O)(Nc1ccc(Cl)nn1)c1ccccc1,-19.7%
CN1CC[C@@H]2C(=O)N3CCc4ccc(-c5ccc6c(c5)OCO6)cc4[C@@H]3C[C@@H]21,-17.0%
CN(C)CCn1c2c(c(SCC(=O)Nc3ccccc3C(F)(F)F)nc1=O)CCCC2,-12.6%
CCOC(=O)c1[nH]c(C)c(C(=O)N2CCN(c3ccccc3)CC2)c1C,-17.6%
CN(C)c1ccc(-c2nccc(NCCN3CCOCC3)n2)cc1,-18.6%
Cc1c(-c2ccccc2)nc2ccccc2c1C(=O)O,-1.5%
O=C(O)COc1ccccc1C=NNc1ccc([N+](=O)[O-])cc1S(=O)(=O)Nc1ccc(Cl)cc1,?
CCOC(=O)C(CC)Sc1nc2c(c(=O)[nH]c(=O)n2C)n1C/C=C(/C)Cl (stereo not given),31.6µM*
CCN(C(=O)C1CCN(S(=O)(=O)c2ccc3c(c2)oc(=O)n3C)CC1)c1cccc(C)c1,1.8%

# Ordered by the number under VDR inhibitor (ascending): some entries from above
SMILES,VDR inhibitor
CCCCC(C(=O)OCC)C(N)Cc1ccc(F)cc1 (stereo not given),1.0%
Nc1nc(NC(=O)C(Cl)(Cl)Cl)nn1-c1ccccc1,4.3%
CSc1ccc(CCNC(=O)c2ccc(-c3nc(COc4ccccc4)c(C)o3)cc2)cc1,4.4%

# Taken from above:
# CCCCC(C(=O)OCC)C(N)Cc1ccc(F)cc1 (stereo not given) in VDR inhibitor has 1.0%
# CCOC(=O)c1[nH]c(C)c(C(=O)N2CCN(c3ccccc3)CC2)c1C in VDR inhibitor has -17.6%
# COC(=O)c1ccc(C(C(=O)NC2CCCCC2)N(Cc2ccccc2)C(=O)Cc2cccs2)cc1 (stereo not given) in VDR inhibitor has 10.3%

# Additional results follow.
SMILES,VDR inhibitor
Cc1ccc(S(=O)(=O)n2nc(C)c(S(=O)(=O)N3CCCCCC3)c2C)cc1,-7.1%
Cc1ccc(-n2cc(C(=O)OCc3ccc(F)c(F)c3)c3ccccc3c2=O)cc1,2.5%
CN(C)c1cccc(C(=O)OCc2cc(=O)oc3cc(O)ccc23)c1,6.0%
O=C(Nc1ccc(OC(F)(F)F)cc1)Oc1ccccc1N1CCOCC1,-25.5%
Clc1ccccc1-c1ccc2ncnc(NCc3ccc4c(c3)OCO4)c2c1,-0.9%
Clc1ccc(SCCn2ccnc2)cc1,18.3%
O=C(Nc1ccccc1Cl)c1ccc(S(=O)(=O)NCC2CCCO2)cc1 (stereo not given),6.2%
O=C(CN1C(=O)COc2ccc(Cl)cc21)N1CCc2ccccc21,-23.2%
CN(CC(=O)Nc1cccc2c1CCCC2)S(=O)(=O)c1ccc(Cl)cc1,3.2%
Cc1ccc(C(=O)OCCN2CCN(c3ncc(C(F)(F)F)cc3Cl)CC2)cc1,-6.2%
Cc1ccc(NC(=O)CNC(=O)N2CC(=O)Nc3ccccc32)cc1F,?
Cc1cc(C)c(C#N)c(SCc2ccccc2C(=O)O)n1,-1.7%
COc1cc(NC(=S)NNC(=O)C(C)(C)O)cc(OC)c1,-22.7%
Cn1c(N/N=C/c2cccs2)nc2c1c(=O)n(Cc1ccccc1)c(=O)n2C,-20.3%
CC(C)N1C/C(=C/c2ccsc2)C(=O)/C(=C/c2ccsc2)C1,15.8µM*
CCOC(=O)[C@@H]1C(c2c(OC)cc(OC)cc2OC)=NO[C@@H]1C(=O)OCC,4.0%
Cc1ccc(/C=C2/SC(=S)N(CCCC(=O)Nc3cc([N+](=O)[O-])ccc3O)C2=O)cc1,4.4%
Nc1nc(SCC(=O)NC2CCCCC2)n[nH]1,-12.5%
Cc1ccc(-c2noc(-c3nnn(CC(=O)Nc4cccc(C(F)(F)F)c4)c3N)n2)cc1,4.5%
CCCc1cc(C(=O)Nc2ccc(C(=O)c3ccccc3)cc2)n(C)n1,8.4%
O=C(c1ccc(NS(=O)(=O)c2cccc3cccnc23)cc1)N1CCCCC1,-11.6%
CC1C/C(=N/N2C(=O)CSC2=S)CC(C)(C)C1 (stereo not given),15.6%
CCc1sc(NC(=O)CN2CCC(C(N)=O)CC2)nc1-c1ccccc1,-19.4%
CCOC(=O)Cn1cnc2c(sc3nc(C)cc(C)c32)c1=O,-5.7%
O=C(Cc1cccc2ccccc12)Nc1ccccc1Br,0.9%
O=[N+]([O-])c1cccc(S(=O)(=O)Nc2ccc(-c3ccc(N4CCOCC4)nn3)cc2)c1,7.5%
Cc1ccc(S(=O)(=O)NC(=NC(C)C)c2ccccc2)cc1,11.4%
COCCn1c(=NC(=O)CCS(=O)(=O)c2ccccc2)sc2cc(F)ccc21,-7.1%
COC(=O)Nc1nn(-c2ccc(Cl)cc2)c(=O)c(C#N)c1C,-15.5%
O=C(CC(O)CCc1ccccc1)c1ccc(O)cc1 (stereo not given),-3.0%
COc1cc(CNC2CCCCCCC2)ccc1OCC(N)=O,-4.0%
CN(C)c1ccc(/C=C/C(=O)c2cccnc2)cc1,-10.0%
O=C(CSc1ncccc1C(=O)O)c1ccc2ccccc2c1,-6.2%
CCc1ccccc1NC(=O)Nc1cccc(F)c1,-4.2%
COc1ccc(S(=O)(=O)O/N=C2\CCCc3ccccc32)cc1,5.6%
NNC(=O)CNC(c1ccccc1)c1cc(Br)ccc1N (stereo not given),4.3%
Cc1cccc2cc(C#N)c(NCCCn3ccnc3)nc12,-15.6%
Cc1ccc(NS(=O)(=O)c2cc([N+](=O)[O-])ccc2N/N=C/c2sc(N3CCOCC3)nc2-c2ccccc2)c(C)c1,-6.4%
Cc1ccccc1Nc1nc(N)nc(CSc2nc3ccccc3c(=O)n2C)n1,-1.7%
Cc1ccc(OCC(=O)NC2CCS(=O)(=O)C2)c([N+](=O)[O-])n1 (stereo not given),-10.7%
CN1C(=O)/C(=C\c2ccccc2OCc2ccccc2)SC1=S,39.3%[activator]
COc1ccc(C(C)=O)cc1COC(=O)CCNS(=O)(=O)c1ccc(C)c(C)c1,-8.6%
CCC1CCC(c2nnc(-c3ccc([N+](=O)[O-])cc3)o2)CC1 (stereo not given),-6.2%
CCn1c(-c2cccnc2)n[nH]c1=S,9.8%
CCC(=O)NCCNc1nc2cc(C)c(C)cc2cc1C#N,11.9%
COc1ccc(-c2csc(NC(=O)c3cccs3)c2C(=O)O)cc1OC,-11.7%
CC(C)N1CSC(=S)N(Cc2ccccc2)C1,79.4µM*
COc1ccc(C)cc1N(C(=O)COc1cccc(F)c1)c1nc2ccccc2s1,-3.3%
Cc1ccc(NS(=O)(=O)c2ccc3c(c2)NC(=O)C(C)C(=O)N3)c(Br)c1 (stereo not given),-11.5%
OCc1ccc(-c2nn(Cc3ccccc3)c3ccccc23)o1,?
CN(Cc1ccccc1)c1nc(N)c([N+](=O)[O-])c(NCc2ccccc2)n1,-21.6%
CN(C(=O)CSc1nnc(-c2ccccc2F)o1)c1ccccc1,5.7%
Cc1cccc(N2CC(c3nc4ccc(C)cc4[nH]3)CC2=O)c1 (stereo not given),6.8%
N/C(=N\c1nc2c(c(=O)[nH]1)CCC2)Nc1cccc(Cl)c1,-10.5%
CC(=O)Nc1ccc2c(c1)C(=O)c1cccc(C(=O)O)c1-2,-14.3%
CCN1CCN(C(=O)/C=C/c2ccc([N+](=O)[O-])cc2)CC1,-19.6%
O=C1c2ccccc2C(O)(c2ccccc2)N1CCc1ccccc1 (stereo not given),-10.0%
CCOC(=O)c1cc(-c2ccc(C)cc2)nc2nc(SC)[nH]c(=O)c12,0.4%
COc1ccc(NC(=O)CN(c2ccccc2F)S(=O)(=O)c2ccc(C)cc2)cc1,-2.6%
O=C(O)COCC(=O)N1CCN(C(c2ccccc2)c2ccccc2)CC1,8.0%

# The list goes on.
SMILES,VDR inhibitor
Cc1ccc(OCCCn2ccnc2)c(Br)c1,-12.9%
COc1ccc(C)cc1NC(=O)c1nnn(Cc2cccc(C(F)(F)F)c2)c1N,-18.6%
COc1cc(C2C(C(=O)Nc3ccc(C)cc3C)=C(C)Nc3nc(SCc4ccccc4)nn32)cc(OC)c1OC (stereo not given),-8.8%
Cc1cc(S(=O)(=O)Nc2ccc(O)c(Sc3nc4ccccc4s3)c2)ccc1Cl,?
Cc1ccccc1C(=O)c1cccn1CC(=O)NCCCc1ccccc1,6.4%
Fc1ccccc1N1CCN(c2nccn3nc(-c4ccc(Br)cc4)cc23)CC1,-3.9%
O=C(c1ccc(Cl)cc1)c1ccc(CN2C(=O)c3ccccc3C2=O)o1,3.7%
Cc1ccc(NC(=O)Nc2cccs2)c(C)c1,-9.1%
CCOC(=O)c1cc(-c2ccc(F)cc2)n(CCC(=O)NCc2ccc(C)cc2)c1C,8.7%
O=C1CSC(c2cccnc2)N1c1ccc(F)cc1 (stereo not given),-7.1%
O=C(NCc1ccncc1)c1cncc(Br)c1,-3.2%
CCOc1cc(C2C(C(=O)OC)=C(C)NC3=C2C(=O)c2ccccc23)c(Br)cc1O (stereo not given),-8.5%
CC1=C(C(=O)Nc2ccccn2)C(c2ccc(Cl)cc2Cl)NC(=S)N1 (stereo not given),-5.6%
CSc1nc(SCC(N)=O)c2c3c(sc2n1)CN(C)CC3,16.0%
CC(=O)c1ccc(OCc2cc(C(=O)NC3CCCCC3)no2)cc1,27.6%
CCOC(=O)c1ccc(NC(=O)CC2OCCN(CC)C2=O)cc1 (stereo not given),-9.5%
COc1ccc(Cl)cc1Nc1nc(C)nc2c1oc1ccccc12,-7.5%
O=c1[nH]c2ccccc2cc1-c1nnn(-c2ccc(Cl)c(Cl)c2)n1,-20.0%
CC(=O)c1ccc(OC(=O)CCNC(=O)c2ccccc2)cc1,5.7%
O=C(CCNC(=O)c1ccccc1)NCC1CCCCC1,-0.9%
CCC1CCCCN1CCCNC(=O)Cn1nc(C)n2nc(-c3ccccc3)cc2c1=O (stereo not given),-3.3%
CC1CN(C(=O)Nc2ccc3snnc3c2)c2ccccc21 (stereo not given),-3.7%
CCCCCCCC1Cc2ccccc2C(C(C(=O)OC)C(=O)OC)N1C(=O)OC (stereo not given),-0.1%
COc1cc(C)c(Cl)cc1S(=O)(=O)NCc1ccco1,9.0%
